Rce1 inh – inhibitors of yeast Ras-converting enzyme. yeast membranes, quenched prenylated peptide cleavage fluorescence. calls only. 290,000 compounds, 0.27% hits. AID 2563;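 active = fall in fluorescence gain of 50% or more versus controls, with final raw signal at or below 3038400; inconclusive = same 50% fall but final raw signal above 3038400; inactive = fall in fluorescence gain under 50%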;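 also: plate controls were neutral control wells for no effect and wells lacking membranes for full effect; tested at 10 µM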
Yeast UUG start – alters start codon recognition fidelity in yeast; 350,000 compounds, 0.13% hits; S. cerevisiae UUG-firefly luciferase reporter, luminescence/redox ratio; activity score, % at 18.7 µM;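 active = replicate mean at a twofold rise or more, about +100% in these data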;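 also: firefly luciferase made from a UUG start codon reports start codon fidelity; reporter light over untreated wells divided by growth signal over untreated wells; some hits fall short of that in this replicate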
eIF4H FP inh – inhibitors of RNA binding by human eIF4H; eIF4H fluorescence polarization binding assay; inhibition, % at 35 µM; 290,000 compounds, 0.94% hits; Q15056;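 active = 50% or more with normal probe brightness, or confirmed in later tests; inconclusive = above 50% with abnormal brightness, or retests that disagree; inactive = below 50% or failed in later tests; about a fifth of its hits are not listed in these tables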;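 also: calls also rest on retests at 20 µM and on dose response follow-up; 0% = protein and probe with vehicle and 100% = probe without protein; strong numbers were not always called active; many hits fall short of the cut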
CSC inhib – blocks cancer stem cells. cancer stem cell-like cells viability, luminescence. inhibition, % at 7.5 µM. 300,000 compounds, 1.1% hits. AID 2717;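 active = mean at 75% or more and at least half the replicates too; inconclusive = mean and replicates disagree; tested in HMLE shEcad cells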;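 also: 0% = median of negative and 100% = median of positive control wells; the first replicate is given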
PABP FP inh – PABP-poly(A) binding inhibition; PABP-poly(A) RNA binding, fluorescence polarization; inhibition, % at 35 µM; 290,000 compounds, 1% hits; AID 2014;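 active = 50% or more with normal probe brightness, or confirmed in later tests; inconclusive = above 50% with abnormal brightness, or retests that disagree; inactive = below 50% or failed in later tests; about a fifth of its hits are not listed in these tables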;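 also: calls also rest on retests at 20 µM and on dose response follow-up; controls were probe without protein and protein plus probe with vehicle; some compounds called inactive have numbers as strong as hits; many hits fall short of the cut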
Target sequence (P11940 whole entry, looked up): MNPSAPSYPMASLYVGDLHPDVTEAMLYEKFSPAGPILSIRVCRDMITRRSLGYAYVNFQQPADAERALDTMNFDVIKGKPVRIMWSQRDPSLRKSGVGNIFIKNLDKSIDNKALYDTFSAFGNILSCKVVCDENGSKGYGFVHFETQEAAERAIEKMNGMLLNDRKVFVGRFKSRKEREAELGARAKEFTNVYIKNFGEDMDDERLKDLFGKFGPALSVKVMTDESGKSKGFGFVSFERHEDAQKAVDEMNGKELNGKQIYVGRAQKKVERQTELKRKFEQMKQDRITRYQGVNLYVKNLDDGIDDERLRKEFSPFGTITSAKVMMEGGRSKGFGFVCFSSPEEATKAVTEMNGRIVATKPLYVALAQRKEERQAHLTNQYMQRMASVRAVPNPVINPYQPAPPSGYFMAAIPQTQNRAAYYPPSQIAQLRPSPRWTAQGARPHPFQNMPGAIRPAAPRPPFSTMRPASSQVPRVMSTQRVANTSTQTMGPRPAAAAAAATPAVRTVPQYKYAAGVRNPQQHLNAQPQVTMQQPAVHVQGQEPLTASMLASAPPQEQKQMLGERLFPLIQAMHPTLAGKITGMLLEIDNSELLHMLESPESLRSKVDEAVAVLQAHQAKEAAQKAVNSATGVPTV
MT1-MMP act inh – MT1-MMP (human) activation inhibition | GFP/RFP ratio change, % at 20 µM | HT1080 RFP-PRO-GFP cells, GFP/RFP ratio fluorescence, overnight; percent of plate control window, DMSO zero | 360,000 compounds, 0.061% hits | AID 651647 | P50281;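 active = GFP/RFP ratio change of at least 30% with cell ATP level not reduced by more than half and red fluorescence within 50% of control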; also: strong numbers were not always called active
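Test system: HT1080 cells expressing an RFP-PRO-GFP fluorescent reporter construct / Compound dosing: single-point 20 µM compound, 1% DMSO / Schedule: cells overnight before dosing, compound overnight, 37 °C, 5% CO2 / Evaluation: GFP/RFP fluorescence ratio / Control set: DMSO and RFP-L50D-GFP cell wells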
HIV Env fusion – inhibitors of HIV Env-mediated cell fusion; HeLa-JRFL Env/CEM21 cell fusion, luciferase; inhibition, % at 12.3 µM; 360,000 compounds, 1.1% hits;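 active = mean replicate inhibition score of at least 50 and every replicate individually at or above 50; inconclusive = only one of the two criteria met; inactive = mean below 50 and not all replicates reaching 50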;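 also: 0% = plate neutral controls and 100% = maraviroc near 300 nM; one replicate is shown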
eIF4H FP inh retest – further read-out of eIF4H FP inh, marked with its call; inhibition, %; compound at 20 µM; confirmation average;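 mean of two retest wells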
PABP FP inh retest – also measured in PABP FP inh; calls as there; inhibition, %; compound at 20 µM; confirmation repeats;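 mean of two retest wells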
MT1-MMP act inh RFP – second read-out of MT1-MMP act inh, no call of its own (marks repeat the call); RFP signal change, %; measured here: RFP expression control read;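 0 = vehicle wells; hits needed this value within 50% of zero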
* marks the source's active call; other numbers are inactive results; i = inactive; ? = inconclusive; . = no result given.

SMILES	Rce1 inh	Yeast UUG start	eIF4H FP inh	CSC inhib	PABP FP inh	MT1-MMP act inh	MT1-MMP act inh RFP	HIV Env fusion	others
COc1cccc(NC(=O)c2cncs2)c1	i	-10	0	-2	2	1	5	-4
CC[C@@H]1C=C(C(=O)O)[C@H](c2ccc(Cl)cc2)N1S(=O)(=O)c1ccc(C)cc1	.	13	.	.	.	3	0	2
CCc1ccc2nc3sc(C(=O)N4CCc5ccccc54)c(N)c3cc2c1	i	.	12	0	13	.	.	.
COc1cc(/C=N/NC(=O)c2cc(-c3ccccc3OC(C)C)nc3ccccc23)ccc1O	i	.	-7	29	8	1	-1	-6
COCCS(=O)(=O)N(Cc1ccccc1)[C@H](C(=O)OC)C(C)C	.	-9	.	.	.	-1	2	-36
Cn1c(NC(=O)CCc2ccccc2)cc(=O)n(C)c1=O	i	-10	6	3	0	-1	1	-54
CCOC(=O)c1c(C)[nH]c(C)c1C(=O)COC(=O)CCOc1ccccc1OC	i	1	2	-9	13	-2	3	.
CCCc1nc2nc(C)c(NS(=O)(=O)c3ccc(C)c(C)c3)c(=O)n2[nH]1	.	-9	.	.	.	-3	2	23
CCS(=O)(=O)N1Cc2ccccc2CC1C(=O)Nc1nccs1 (configuration not stated)	i	.	5	19	3	-4	4	-5
C=CCNc1nnc(Cl)c2ccccc12	i	.	-7	-10	17	-3	1	.

The final five entries of the part above lead into the next.
SMILES	Rce1 inh	Yeast UUG start	eIF4H FP inh	CSC inhib	PABP FP inh	MT1-MMP act inh	MT1-MMP act inh RFP	HIV Env fusion	others
Cn1c(NC(=O)CCc2ccccc2)cc(=O)n(C)c1=O	i	-10	6	3	0	-1	1	-54
CCOC(=O)c1c(C)[nH]c(C)c1C(=O)COC(=O)CCOc1ccccc1OC	i	1	2	-9	13	-2	3	.
CCCc1nc2nc(C)c(NS(=O)(=O)c3ccc(C)c(C)c3)c(=O)n2[nH]1	.	-9	.	.	.	-3	2	23
CCS(=O)(=O)N1Cc2ccccc2CC1C(=O)Nc1nccs1 (configuration not stated)	i	.	5	19	3	-4	4	-5
C=CCNc1nnc(Cl)c2ccccc12	i	.	-7	-10	17	-3	1	.
COc1ccc(CCNC(=O)C(=O)NCC2OCCN2S(=O)(=O)c2ccc(F)cc2)cc1OC (configuration not stated)	i	-13	-3	-10	-5	0	-2	.
CCOc1ncccc1C(=O)OCC(=O)Nc1c(C)cccc1C	i	-17	0	8	4	-11	-2	.
Cc1ccc(NC(=O)CN2C(=O)NC(C)(C)C2=O)cc1S(=O)(=O)N1CCCCCC1	.	8	.	.	.	2	3	6
CC(C)CCNc1nc2c(c(=O)[nH]c(=O)n2C)n1CC(O)COC(C)C (configuration not stated)	i	-5	-3	-5	4	-2	-1	.
CCn1nc(C)c(NC(=O)/C=C/c2cnn(C)c2C)c1C	i	-5	-13	.	-4	5	0	1
CC(=O)Nc1ccc(NC(=O)C2c3ccccc3Oc3ccccc32)cc1	i	.	21	-8	16	1	2	6
CC(NC(=O)COc1ccccc1)C(c1ccccc1)N1CCN(C)CC1 (configuration not stated)	i	-7	-2	-5	-1	-1	1	.
Cc1cc(C)n2c(SCC(=O)NCc3ccco3)nnc2n1	i	-15	7	.	10	0	-1	-17
CCCN(CC(=O)Nc1ccccc1C)C(=O)COc1ccc2c(c1)CCC2	i	-1	22	-3	48	-1	1	3
CCCc1c(C(=O)N/N=C(\C)c2cccnc2)nnn1-c1nonc1N	.	-14	.	.	.	2	0	-14

As a working copy, three of the compounds above.
SMILES	Rce1 inh	Yeast UUG start	eIF4H FP inh	CSC inhib	PABP FP inh	MT1-MMP act inh	MT1-MMP act inh RFP	HIV Env fusion	others
Cc1cc(C)n2c(SCC(=O)NCc3ccco3)nnc2n1	i	-15	7	.	10	0	-1	-17
CCCN(CC(=O)Nc1ccccc1C)C(=O)COc1ccc2c(c1)CCC2	i	-1	22	-3	48	-1	1	3
CCCc1c(C(=O)N/N=C(\C)c2cccnc2)nnn1-c1nonc1N	.	-14	.	.	.	2	0	-14

Going on with the list.
SMILES	Rce1 inh	Yeast UUG start	eIF4H FP inh	CSC inhib	PABP FP inh	MT1-MMP act inh	MT1-MMP act inh RFP	HIV Env fusion	others
COc1cc2ncnc(Nc3ccc4c(c3)OCO4)c2cc1OC	i	3	-4	42	-5	-2	-3	1
COC(=O)c1sc2ccccc2c1C(=O)OC	i	-16	2	.	-4	5	6	.
Cc1[nH]c2ccccc2c1/C=N/Nc1nc(Nc2ccc(F)cc2)nc(N2CCOCC2)n1	i	-15	-1	69	2	-3	-3	.
CC1(C)[C@@H](O)CC[C@]2(C)C3C(O)C=C4[C@H]5C[C@@](C)(CO)CC[C@]5(C)CC[C@]4(C)[C@]3(C)CC[C@@H]12 (some centres not stated)	i	0	2	126*	-6	-1	-2	39
CCCCN1CC(N(C)CCN(C)C)CS1(=O)=O (configuration not stated)	.	1	.	.	.	4	4	3
COc1ccc(S(=O)(=O)N2CCSC2c2ccccc2)cc1 (configuration not stated)	i	-17	4	-1	4	2	-6	-22
Cc1ccc(OCCC(=O)OCC(=O)Nc2ccccc2)cc1	i	-16	-3	-9	-5	-2	-2	3
CN1CCN(c2nc3c(c(=O)n(C)c(=O)n3C)n2Cc2cccc(Br)c2)CC1	i	-18	-1	-16	-2	-7	-6	0
Cc1cccc(CNc2ncc(-c3cccc([N+](=O)[O-])c3)n2C)c1	i	.	-3	.	-1	2	-1	-6
COC(=O)c1cc(NC(=O)CN2CCN(C(C)=O)CC2)cc(C(=O)OC)c1	i	.	-1	-4	8	0	1	-1
CC(C)(C)NC(=S)NCc1ccc2c(c1)OCO2	i	.	8	-9	8	2	3	-8
Cc1ccc(-n2c(SCc3nc4ccccc4[nH]3)nnc2-c2ccncc2)cc1	i	.	7	2	-3	3	1	.
CCNC(=O)NC1(C(=O)N2CCC(Cc3ccccc3)CC2)CCCCC1	i	2	2	-10	1	-6	-3	-9
COc1ccc(Cl)cc1C(=O)OCC(=O)N(CC(C)C)c1c(N)n(Cc2ccccc2)c(=O)[nH]c1=O	i	8	.	-10	.	-17	-8	-6
O=C(COC(=O)c1c2c(nc3ccccc13)/C(=C\c1cccs1)CCC2)Nc1ccccc1Cl	i	.	?	73	-5	-1	-5	19
Cc1ccc(-c2nnn(CC(=O)N(CC(=O)NC3CCCCC3)c3ccc(F)c(Cl)c3)n2)o1	i	-11	7	-7	3	-4	-5	.
Cc1c(NS(=O)(=O)c2ccc3[nH]c(=O)[nH]c3c2)c(=O)n(-c2ccccc2)n1C	i	.	-14	-4	2	1	7	-23
COC(=O)c1oc2c(c1C)C(=O)CC(C)(C)C2	i	-10	-7	-2	-3	3	2	6
COc1ccc(Cl)cc1C(=O)NCc1cnn(C)c1C	i	-20	-9	5	-3	0	6	-30
Cc1cnccc1CN(C)Cc1cn(C)nc1-c1ccc(Oc2ccccc2)cc1	i	.	-7	-6	0	-8	-10	31
CCOc1cccnc1Sc1ccccc1	i	.	.	-5	.	3	2	1
CCOC(=O)COc1ccc2c(c1)C(=O)CC1(CCCCC1)O2	i	6	-2	-10	1	9	5	-1
COc1cccc(-c2nc(CS(=O)(=O)CC(=O)NCCCN3CCN(C)CC3)c(C)o2)c1	i	20	9	-21	5	-2	3	8
COC(=O)CSc1nc(-c2cccs2)ccc1C#N	i	.	3	.	4	-7	4	.
Cc1cccc(NS(=O)(=O)c2cccc(C(=O)N3CCN(C/C=C/c4ccccc4)CC3)c2)c1	.	16	.	6	.	-1	-10	.
Cc1nnc(SCc2ccc(F)cc2)n1NC/C=C/c1ccccc1	i	-20	-2	0	-12	-1	-12	.
C=CCN1C=CC=C/C1=C1\SC(=S)N(C)C1=O	i	.	-13	2	10	3	0	9
CCCC(=O)Nc1ccc(C(=O)NCC(=O)OCC)cc1	i	6	-11	-12	-9	0	2	.
Oc1ccccc1N1CCN(CC(O)COC2CCCc3ccccc32)CC1 (configuration not stated)	i	-10	-1	-7	6	3	3	1
COC(=O)c1cc2ccccc2n1S(=O)(=O)c1ccccc1	i	-12	-2	0	-2	-7	0	4
COc1cccc(C(C(=O)NC2CCCC2)N(CCC(C)C)C(=O)CCC(=O)Nc2cc(C)on2)c1 (configuration not stated)	i	-14	-3	.	7	-4	-2	29
Cc1ccccc1NC(=O)CCS(=O)(=O)c1ccc(Br)s1	i	-7	58*	-8	20	4	6	9	eIF4H FP inh retest=61*;PABP FP inh retest=14
COc1ccc(C2NC(=O)NC(C)=C2C(=O)OC2CCCCC2)cc1OC (configuration not stated)	i	-5	-5	-4	-2	-1	-1	6
Cc1cc(-c2cccnc2)c(C#N)c(SCc2cccc(F)c2)n1	i	-5	-2	-6	-1	-14	-12	46
COc1ccc2nc(SCC(=O)Nc3nonc3C)[nH]c2c1	i	.	-9	.	-5	0	4	-15
COc1ccc(-n2c(C)n[nH]c2=O)cc1	i	-20	-6	1	0	5	1	-41
Cc1cccc(C)c1NC(=O)CNC(=O)C(NC(=O)c1ccc(C(C)(C)C)cc1)C(C)C (configuration not stated)	i	.	10	.	7	-6	-9	-4
CC(C)(C)c1cc(P(=O)(c2ccccc2)c2ccccc2)ccc1O	i	.	-1	10	1	4	1	45
Cn1cc(CCC(=O)N2CCCC(N3CCN(c4ccccc4F)CC3)C2)cn1 (configuration not stated)	i	-23	2	10	-8	2	6	4
CCC1Oc2ccccc2N(CC(=O)NCCCN2CCN(Cc3ccccc3)CC2)C1=O (configuration not stated)	i	-1	-5	6	-5	1	-2	.
CC(=O)c1cccc(NC(=O)C23CC4CC(C2)CC(n2cncn2)(C4)C3)c1	i	-15	-2	-7	31	-5	2	-29
COCCNC(=O)C(OC(=O)CC1Sc2ccccc2NC1=O)c1ccccc1 (configuration not stated)	i	-14	3	-6	12	2	6	.
CN(C)S(=O)(=O)c1ccc(C(=O)Nc2nnc(-c3ccco3)o2)cc1	i	-32	7	.	6	0	2	-4
CCc1cc(=O)oc2cc(OCC(=O)NCC3CCC(C(=O)O)CC3)ccc12 (configuration not stated)	i	6	-7	-11	5	8	0	.
CCOc1cc(C(=O)Nc2cc(=O)n(C)c(=O)n2C)cc(OCC)c1OCC	i	1	4	-2	63	3	4	.	eIF4H FP inh retest=7;PABP FP inh retest=41
CCN(CC)CCOCCn1c(C)ccc1C	.	-5	.	.	.	0	2	?
CCCc1ccc(NS(=O)(=O)c2c(C)oc(C)c2C(=O)OC)cc1	i	-7	4	-1	-4	1	-3	1
Cc1cccc(C)c1OCCN1CCOCC1	i	-28	41	-14	13	0	1	-25
CN1/C(=C/C2CC(=O)NC2=O)C(C)(C)c2ccccc21 (configuration not stated)	.	.	10	14	11	6	5	-102

In the list so far, these contain a COOH group:
SMILES	Rce1 inh	Yeast UUG start	eIF4H FP inh	CSC inhib	PABP FP inh	MT1-MMP act inh	MT1-MMP act inh RFP	HIV Env fusion	others
CC[C@@H]1C=C(C(=O)O)[C@H](c2ccc(Cl)cc2)N1S(=O)(=O)c1ccc(C)cc1	.	13	.	.	.	3	0	2
CCc1cc(=O)oc2cc(OCC(=O)NCC3CCC(C(=O)O)CC3)ccc12 (configuration not stated)	i	6	-7	-11	5	8	0	.

An excerpt; count on the stated rates, not on these rows.
